Screens from PubChem BioAssay.
CSC inhib = cancer stem cell inhibition; cancer stem cell-like cells viability, luminescence; inhibition, % at 7.5 µM; 300,000 tested, 1.1% active; AID 2717;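 active means mean at 75% or more and at least half the replicates too; tested in HMLE shEcad cells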;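 further: 0% = median of negative and 100% = median of positive control wells; the first replicate is given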
MT1-MMP act inh = blocks activation of human MT1-MMP | 360,000 tested, 0.061% active | HT1080 RFP-PRO-GFP cells, GFP/RFP ratio fluorescence, overnight; percent of plate control window, DMSO zero | GFP/RFP ratio change, % at 20 µM | AID 651647 | P50281;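 active means GFP/RFP ratio change of at least 30% with cell ATP level not reduced by more than half and red fluorescence within 50% of control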; further: strong numbers were not always called active
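Test system: HT1080 cells expressing an RFP-PRO-GFP fluorescent reporter construct / Compound dosing: single-point 20 µM compound, 1% DMSO / Schedule: cells overnight before dosing, compound overnight, 37 °C, 5% CO2 / Evaluation: GFP/RFP fluorescence ratio / Control set: DMSO and RFP-L50D-GFP cell wells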
Env fusion inh = blocks HIV Env-driven cell-cell fusion; HeLa-JRFL Env/CEM21 cell fusion, luciferase; inhibition, % at 12.3 µM; 360,000 tested, 1.1% active; AID 651610;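 active means mean replicate inhibition score of at least 50 and every replicate individually at or above 50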;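 further: 0% = plate neutral controls and 100% = maraviroc near 300 nM; one replicate is shown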
PABP polyA inh = blocks human PABP binding to poly(A) RNA | fluorescence polarization | inhibition, % at 35 µM | 290,000 tested, 1% active | AID 2014;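 active means 50% or more with normal probe brightness, or confirmed in later tests; about a fifth of its hits are not listed in these tables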;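 further: calls also rest on retests at 20 µM and on dose response follow-up; controls were probe without protein and protein plus probe with vehicle; some compounds called inactive have numbers as strong as hits; many hits fall short of the cut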
Target sequence (P11940 whole entry, looked up): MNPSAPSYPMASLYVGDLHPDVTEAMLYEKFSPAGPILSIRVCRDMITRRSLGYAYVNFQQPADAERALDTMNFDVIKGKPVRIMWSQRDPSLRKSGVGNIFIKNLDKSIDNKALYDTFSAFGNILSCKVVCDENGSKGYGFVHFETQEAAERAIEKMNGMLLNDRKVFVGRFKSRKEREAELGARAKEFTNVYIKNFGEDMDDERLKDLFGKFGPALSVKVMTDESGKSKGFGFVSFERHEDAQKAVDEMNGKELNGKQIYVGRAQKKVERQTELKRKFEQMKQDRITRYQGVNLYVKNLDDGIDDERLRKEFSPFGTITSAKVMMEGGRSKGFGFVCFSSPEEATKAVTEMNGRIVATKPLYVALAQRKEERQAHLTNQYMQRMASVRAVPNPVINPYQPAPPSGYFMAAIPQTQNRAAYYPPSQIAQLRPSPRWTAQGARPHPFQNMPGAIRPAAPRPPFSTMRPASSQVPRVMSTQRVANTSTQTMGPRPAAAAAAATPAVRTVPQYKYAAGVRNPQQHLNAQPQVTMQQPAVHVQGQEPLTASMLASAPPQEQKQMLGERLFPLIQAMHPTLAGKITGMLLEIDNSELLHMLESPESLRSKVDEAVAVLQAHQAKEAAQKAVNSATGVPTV
eIF4H inh = inhibitors of RNA binding by human eIF4H. Q15056. eIF4H fluorescence polarization binding assay. inhibition, % at 35 µM. 290,000 tested, 0.94% active. AID 2012;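 active means 50% or more with normal probe brightness, or confirmed in later tests; about a fifth of its hits are not listed in these tables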;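 further: calls also rest on retests at 20 µM and on dose response follow-up; 0% = protein and probe with vehicle and 100% = probe without protein; strong numbers were not always called active; many hits fall short of the cut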
Yeast UUG start = modulators of start codon recognition fidelity in yeast; S. cerevisiae UUG-firefly luciferase reporter, luminescence/redox ratio; activity score, % at 18.7 µM; 350,000 tested, 0.13% active; AID 602363;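 active means replicate mean at a twofold rise or more, about +100% in these data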;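 further: firefly luciferase made from a UUG start codon reports start codon fidelity; reporter light over untreated wells divided by growth signal over untreated wells; some hits fall short of that in this replicate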
Rce1 inhib = blocks yeast Ras-converting enzyme; AID 2563; calls only; Q03530; yeast membranes, quenched prenylated peptide cleavage fluorescence; 290,000 tested, 0.27% active;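 active means fall in fluorescence gain of 50% or more versus controls, with final raw signal at or below 3038400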;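 further: plate controls were neutral control wells for no effect and wells lacking membranes for full effect; tested at 10 µM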
eIF4H inh retest = recorded beside eIF4H inh, whose call it bears; inhibition, %; compound at 20 µM; confirmation average;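 mean of two retest wells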
PABP polyA inh retest = further read-out of PABP polyA inh, marked with its call; inhibition, %; compound at 20 µM; confirmation repeats;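 mean of two retest wells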
MT1-MMP act inh RFP = recorded beside MT1-MMP act inh, whose call it bears; RFP signal change, %; measured here: RFP expression control read;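 0 = vehicle wells; hits needed this value within 50% of zero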
* marks the source's active call; other numbers are inactive results; i = inactive; · = no result given. Only part of the results is shown, so the mix of outcomes need not match the whole.

SMILES	CSC inhib	MT1-MMP act inh	MT1-MMP act inh RFP	Env fusion inh	PABP polyA inh	eIF4H inh	Yeast UUG start	Rce1 inhib	others
CNC(=S)N(CCO)Cc1cc2cc3c(cc2[nH]c1=O)OCCO3	-4	1	4	-11	-8	-9	-3	i
COc1ccc(S(=O)(=O)N2CCC(C(=O)Nc3ccc(S(=O)(=O)N4CCCC4)cc3)CC2)cc1OC	-16	-2	2	-9	·	·	17	i
CCn1c(SCC(=O)NC(=O)Nc2ccc3c(c2)OCCO3)nnc1-c1cccs1	-13	-2	6	-68	-7	0	-15	i
CN(C)CCNC(=O)c1cccc(-c2cnc3c(NC=O)cc(-c4cccc(C(F)(F)F)c4)cn23)c1	·	-12	-6	-26	·	·	-11	·
CCCCc1nc2cc(C(=O)NCc3nccn3CC)ccc2o1	-15	2	-4	-19	-6	5	-21	i
O=C(CSc1nnc2ncccn12)Nc1cccc2ccccc12	-3	6	4	9	9	-6	-13	i
CC(=O)Nc1ccc(S(=O)(=O)NCCC(=O)OCc2nnc(-c3ccccc3)o2)cc1	-8	-2	1	-9	·	·	-10	i
O=C(NCc1ccc(Cl)c(Cl)c1)c1ccc2c(c1)OCO2	59	0	4	-1	-1	-20	2	i
S=C1NCCc2ccccc2C1c1ccccc1Cl (centres undefined)	-4	4	1	-26	2	1	-2	i
Cc1ccc(-n2c(SCC(=O)N3Cc4ccccc4CC3C(=O)O)nnc2-c2cccnc2)c(C)c1 (centres undefined)	12	0	1	2	6	-4	·	i
CCC(C)C(NC(=O)C(C)NC(=O)CNC(=O)OC(C)(C)C)C(N)=O (centres undefined)	-1	5	3	4	2	-2	·	i
O=C(CCN1C(=O)c2ccccc2C1=O)NCc1ccco1	·	6	2	·	9	12	-13	i
Cc1ccc(NS(=O)(=O)c2cc(C(=O)N(C)C)ccc2C)cc1C	·	1	1	-32	-1	3	·	i
CC(C)(C)[C@@H]1C=C(C(N)=O)O[C@H](OCc2ccc(CO)cc2)C1	-1	5	-13	9	-7	2	-15	i
O=C(CCSCc1ccc(Cl)cc1)NCc1ccco1	5	-2	1	-3	2	-1	·	i
O=C(Cc1ccc([N+](=O)[O-])cc1)N1CCc2ccccc2C1	·	0	-1	-3	-2	-7	·	i
O=C(CSc1nnc2ccccn12)NCCc1ccc(F)cc1	-6	0	1	1	12	-7	·	i
Cc1cccc(NC(=S)NNC(=O)c2ccc(Br)o2)c1	·	6	2	-75	2	22	-38	i
O=C(c1ccc(Cl)cc1)N1CCC2CC1c1cc(-c3ccccc3)ccc12 (centres undefined)	·	-1	-2	22	·	·	-30	·
COc1cc(NC(=O)CSc2nccc(C)n2)c(C(=O)O)cc1OC	-3	5	5	-10	4	4	-15	i

Structural class: the entries above with an aryl methoxy group.
SMILES	CSC inhib	MT1-MMP act inh	MT1-MMP act inh RFP	Env fusion inh	PABP polyA inh	eIF4H inh	Yeast UUG start	Rce1 inhib	others
COc1ccc(S(=O)(=O)N2CCC(C(=O)Nc3ccc(S(=O)(=O)N4CCCC4)cc3)CC2)cc1OC	-16	-2	2	-9	·	·	17	i
COc1cc(NC(=O)CSc2nccc(C)n2)c(C(=O)O)cc1OC	-3	5	5	-10	4	4	-15	i

Next part:
SMILES	CSC inhib	MT1-MMP act inh	MT1-MMP act inh RFP	Env fusion inh	PABP polyA inh	eIF4H inh	Yeast UUG start	Rce1 inhib	others
CCOC(=O)C1(C)NC(c2cccs2)C2C(=O)N(c3ccc(OC)cc3)C(=O)C21 (centres undefined)	-7	2	2	7	-5	6	·	i
Cc1cnc(CN(C)C(=O)C2CCC(=O)N(CCc3ccc(Cl)cc3)C2)[nH]1 (centres undefined)	·	-6	0	-4	·	·	-12	·
CCOc1cc(/C=N/NC(=O)CSc2nnc(C)s2)ccc1OCc1ccccc1Cl	-10	-3	-4	3	-18	-5	·	i
Cc1cccc(-n2ncc3c(N4CCCc5ccccc54)ncnc32)c1	76*	-3	-4	-65	-4	-6	·	i
COc1ccc(S(=O)(=O)NCc2ccncc2)cc1NC(=O)c1ccccc1F	3	-3	-15	26	·	·	9	·
Cc1[nH]c2ccccc2c1SCC(=O)NC1CCCCC1	-2	2	-3	1	0	11	·	i
COc1ccc(S(=O)(=O)Cc2ccc(C(=O)N3CCc4ccccc4C3)o2)cc1	-11	-5	-2	16	-3	2	-20	i
COc1cccc(CN(C)CC(=O)Nc2cccc(S(N)(=O)=O)c2)c1OC	-12	-3	-2	14	11	-2	·	i
O=C(NC1CCCCC1)c1ccc(-c2cccc([N+](=O)[O-])c2)o1	-6	-2	-2	-123	-11	-16	-14	i
COc1cc2nc3c4ccccc4n(CC#N)c3nc2cc1OC	·	·	·	-52	-3	-3	·	i
CCSc1nnc(NC(=O)c2ccccc2C)s1	-8	0	-1	-16	17	8	·	i
COC(=O)c1ccccc1NC(=O)CSc1nnc(CNS(=O)(=O)c2ccc(C)cc2)n1C	·	0	-2	·	0	2	·	i
CCN(CC)c1ccc(C=Nc2cccnc2Cl)c(O)c1	-3	4	9	-21	20	10	-3	i
COc1ccc(Cc2nnc(NC(=O)Cc3cccs3)s2)cc1OC	-8	-5	0	20	-14	2	5	i
O=C(O)c1ccccc1C(=O)c1ccc(Oc2ccccc2)cc1	-4	3	8	·	-4	4	·	i
CCCCOc1ccc(/C=C/C(=O)Nc2ccc(C(N)=O)cc2)cc1	-3	-2	-1	4	0	1	·	i
CCN(Cc1nc2ccccc2c(=O)[nH]1)C(=O)c1cccc(S(=O)(=O)N2CCc3ccccc32)c1	-9	5	-11	·	·	·	-18	·
Cc1nonc1C(=O)N/N=C/c1ccc(O)c(O)c1	-25	0	-8	4	-3	5	-14	i
O=C(CSc1nnc(CNC(=O)c2ccccc2)o1)Nc1ccc2c(c1)OCCO2	-7	-3	4	-3	4	-8	-8	i
S=c1[nH]cc(-c2ccccc2)n1-c1ccccc1Cl	-17	-2	-3	-6	-6	-7	·	i
N#Cc1ncc(-c2ccc3c(c2)OCCOCCOCCOCCO3)nc1C#N	25	-2	2	-34	-10	0	-4	i
COc1cc(C(=O)OCC(=O)N2CCCCCC2)c([N+](=O)[O-])cc1OC	-7	5	3	·	·	·	2	·
CC(=O)Nc1nc(C2COc3ccccc3O2)cs1 (centres undefined)	·	0	2	·	-1	-1	-39	i
COc1ccc(NC(=O)c2sc3nc(C)cc(C)c3c2N)c(OC)c1	2	-2	0	-11	·	·	-14	i
COC(=O)C1=C(C)N(CC(C)C)C(=O)/C1=C\c1cccs1	7	3	1	·	2	-1	0	i
CCCC(=O)Nc1ccc(NC(=O)c2cccc(OC)c2)cn1	-4	3	-2	-13	2	-7	-7	i
c1ccc(C(c2ccccc2)N2CCN(c3ccc4ccccc4n3)CC2)cc1	-28	-2	-4	·	-3	1	-11	i
COC(=O)c1ccc(S(=O)(=O)NC(C)(C)C)n1C	-2	0	4	-3	-2	0	·	i
Cc1ccc(Cn2c(NS(=O)(=O)c3ccccc3)nc3ccccc32)cc1	-5	-1	-7	10	-7	14	-15	i
CCC(C)(C)n1nnnc1C(c1ccc2ncccc2c1)N1CCN(c2ccc(O)cc2)CC1 (centres undefined)	-4	-4	-1	0	11	0	-12	i

Molecules listed so far with a cyano group (2):
SMILES	CSC inhib	MT1-MMP act inh	MT1-MMP act inh RFP	Env fusion inh	PABP polyA inh	eIF4H inh	Yeast UUG start	Rce1 inhib	others
COc1cc2nc3c4ccccc4n(CC#N)c3nc2cc1OC	·	·	·	-52	-3	-3	·	i
N#Cc1ncc(-c2ccc3c(c2)OCCOCCOCCOCCO3)nc1C#N	25	-2	2	-34	-10	0	-4	i

New compounds follow
SMILES	CSC inhib	MT1-MMP act inh	MT1-MMP act inh RFP	Env fusion inh	PABP polyA inh	eIF4H inh	Yeast UUG start	Rce1 inhib	others
CCNC(=S)NNC(=O)CCc1nc2cc(Cl)ccc2n(Cc2ccccc2)c1=O	-7	-3	-1	38	-6	3	-23	i
O=C(COc1ccc2ccccc2c1)NNC(=O)c1ccc([N+](=O)[O-])cc1	-1	6	7	8	-3	18	·	i
COC(=O)c1cccc(NC(=O)c2cccc(-n3cnnn3)c2)c1	·	3	8	-202	·	·	-8	·
COCC(=O)Nc1cc(C(=O)Nc2ccccc2C)ccc1Cl	-6	2	0	1	0	7	-23	i
CCOC(=O)C1CCN(C(=O)COC(=O)CN(C)S(=O)(=O)c2ccc(NC(C)=O)cc2)CC1	-21	-3	-1	-5	3	-9	5	i
CCC1=C(OC(=O)N(CC)CC)N2C(=O)OC(=NCC3CC3)[C@]2(C)[C@H]2C1=CC[C@H]1C(=O)N(C)C(=O)[C@H]12	-5	-1	-1	-29	2	-10	-5	i
CSc1nc(N(C)NC(=O)c2cccc(C)c2)c2ccccc2n1	4	23	4	·	1	-12	-7	i
COC(=O)Cn1c(Cc2ccccc2)nc2ccccc21	-13	3	-2	7	5	-16	-2	·
C=C1C[C@@]23CCC4[C@@](C)(CCC[C@@]4(C)C(=O)OC)C2CC[C@]1(OC(C)=O)C3 (some centres undefined)	14	0	-10	34	·	·	-17	·
Cc1ncc(N=Nc2ccc(F)cc2)c(-c2ccc(Cl)cc2)n1	-9	1	4	·	-4	0	-8	i
CCCCCC(O)(CCN1CCCCC1)c1ccccc1 (centres undefined)	-7	1	1	-5	-4	-2	-6	i
CCN=C(N/N=C/c1ccc([N+](=O)[O-])cc1)SC	-6	13	5	-62	30	-1	-7	i
O=C(Nc1cccnc1)C1Cc2c(-c3ccco3)ccnc2O1 (centres undefined)	·	5	-2	-5	·	·	-12	·
CCOCCCNc1nc2nc3ccc(C)cn3c(=O)c2cc1C(=O)NCC1CCCO1 (centres undefined)	-3	0	1	-9	5	8	·	i
COc1ccc(C(=O)Nc2sc(C)c(C)c2CN2CCOCC2)cc1	-13	-6	-2	-11	5	2	·	i
O=C(O)C1C(c2ccccc2)C(C(=O)Oc2ccc(O)cc2)C1c1ccccc1 (centres undefined)	·	-2	-1	-9	0	-2	-9	i
Cc1cccc(OCc2nn[nH]n2)c1C	-9	5	6	-5	-4	-3	-24	i
O=C(COc1ccccc1C(=O)NCc1ccccc1)Nc1ccccc1	2	-3	-5	·	·	·	-18	·
CC(=O)NNc1ncnc2c1cnn2-c1ccccc1	-5	-3	-3	18	54	-12	·	i	eIF4H inh retest=0;PABP polyA inh retest=-2
CC(=O)Nc1cccc(-c2nnc(SCc3ccccc3C#N)n2C)c1	-6	2	4	-18	3	8	-12	i
CC(C)(C)c1ccc(C(=O)C2CCCN(C(=O)CN3CCCC3=O)C2)cc1 (centres undefined)	-17	1	-2	13	-17	-6	·	i
O=c1cc(Nc2ccc3c(c2)OCCO3)[nH]c(=O)n1C1CCCCC1	-3	-8	-7	-30	-8	10	-18	i
Cc1ccc(C2(C)NC(=O)N(CC(=O)NCCC3=CCCCC3)C2=O)cc1 (centres undefined)	-12	-1	1	·	13	5	-16	i
Cc1nc2ccc(NC(=O)c3cc([N+](=O)[O-])cc([N+](=O)[O-])c3Cl)cc2s1	54	5	5	-26	-2	18	-19	·
CCC(Sc1ccccn1)C(=O)Nc1nnc(C)s1 (centres undefined)	-15	-1	0	·	4	-9	-15	i
CCOc1ccc(-c2cc3cc(OC)c(OC)cc3c(C)n2)cc1	-13	6	2	-4	16	-3	-22	i
OC(COCC(F)(F)C(F)(F)C(F)(F)C(F)F)Cn1c2ccccc2c2ccccc21 (centres undefined)	103*	3	-2	·	2	8	·	i
COCCCNS(=O)(=O)c1cc2c3c(c1)C(C)C(=O)N3CCC2 (centres undefined)	-1	-2	-4	8	2	0	4	i
O=C(CSc1nnc(NCc2ccccc2)s1)NC1CCS(=O)(=O)C1 (centres undefined)	-17	2	9	-7	11	5	-18	i
CC1CCN(C(=O)c2cc3ccccc3c(=O)o2)CC1	0	-2	5	-1	6	-3	-11	i
COc1cccc(/C(O)=C/C(=O)C(=O)Nc2ccc(S(=O)(=O)NC(C)=O)cc2)c1	-15	3	0	-2	-26	-1	-6	i
